Sa growth 42C – S. aureus growth inhibition at 42 and 30 °C, primary screen, LtaS inhibitor project, RN4220, two temperatures | AID 720641, 2013 | relative growth, % (test concentration not listed) | OD600, 20 h, 42 °C; active compounds read low | hit rate 0.53% among 170,000;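 active = growth at 42 °C up to 50% and 20 or more points under that at 30 °C, or under 10% at both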;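 also: 300 nL library stock went into each well; scaled to the means of positive and negative controls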
GIV Gai3 FP – inhibitors of GIV peptide binding to Galpha-i3, primary screen, biochemical, fluorescence polarization, FITC-GIV GBA peptide, rat Galphai3 | Guanine nucleotide-binding protein G(i) subunit alpha-3 (Rattus norvegicus), P08753 | 90 min; active compounds read low; scaled: aluminum fluoride 0%, vehicle 100% | percent of control (FP), % (test concentration not listed) | hit rate 0.42% among 210,000;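 active = replicate mean at 85% of control or lower, very high polarization wells dropped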;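 also: lower values mean more displacement of the GIV peptide from Galpha-i3; wells of about 15 µL received 100 nL stock; the first replicate is given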
Target sequence (P08753 whole entry, looked up): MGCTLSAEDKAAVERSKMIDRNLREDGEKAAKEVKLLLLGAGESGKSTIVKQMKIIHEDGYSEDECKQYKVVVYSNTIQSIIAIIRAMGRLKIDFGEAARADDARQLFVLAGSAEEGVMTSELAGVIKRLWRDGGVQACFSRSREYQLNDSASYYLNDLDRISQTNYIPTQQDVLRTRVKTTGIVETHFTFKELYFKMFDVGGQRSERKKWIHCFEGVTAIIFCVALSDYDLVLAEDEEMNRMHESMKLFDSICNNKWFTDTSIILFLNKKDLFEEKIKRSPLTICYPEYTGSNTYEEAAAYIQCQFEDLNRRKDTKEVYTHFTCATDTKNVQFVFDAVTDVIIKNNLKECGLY
HCMV NEC inh – inhibitors of HCMV UL50-UL53 interaction, biochemical, HTRF; HCMV UL50-UL53 nuclear egress complex (human cytomegalovirus); normalized percent inhibition; inhibition, % (test concentration not listed); hit rate 0.15% among 190,000; AID 1918969, 2023;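 active = both replicates at 50% or more, plus weaker picks with an unusually low signal ratio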;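 also: stock transfer was 100 nL into about 20 µL; 0% = negative control wells and 100% = wells with untagged competitor protein; inactives centre near -12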
Sa growth 42C second temp – also measured in Sa growth 42C; calls as there; relative growth, %; measured here: growth at 30 °C;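 optical density after 20 h as mean of two plates; 100% = untreated growth and lower means inhibition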
Active calls of the source: *; . = no result given; & = joins results of further samples.

SMILES	Sa growth 42C	Sa growth 42C second temp	GIV Gai3 FP	HCMV NEC inh
Cc1ccccc1NC(=O)c1ccccc1NC(=O)c1ccccc1	79	90	.	-16
CCC(=O)N1CCCC1c1nc2ccccc2n1CCCCOc1ccccc1C (stereo not drawn)	.	.	105	-16
COc1nc(Nc2ccc(C)cc2)nc(N2CCC(C)CC2)n1	148	99	103	-9
COc1ccc(NC(=O)C(Cc2ccccc2)NS(=O)(=O)c2ccc3c(c2)CCC(=O)N3)c(OC)c1 (stereo not drawn)	109	89	105	-30
COC(=O)c1c(C)noc1-c1cccs1	78	85	108	-7
CCCNC(=O)c1ccc(-n2c(-c3ccccc3)cc3c2CCC(C)C3)cc1 (stereo not drawn)	98	101	104	11
CCOC(=O)N1CCC(NC(=O)c2sc3nc4n(c(=O)c3c2C)CCCC4)CC1	92	90	104	.
CCCOC(=O)c1cc(-c2ccc(/C=C3\C(=O)N(CCO)C(=O)C(C#N)=C3C)o2)ccc1Cl	88	82	110	.
CC(C)CC(=O)N[C@H](C(=O)NC(C(=O)NC(CC(C)C)[C@@H](O)CC(=O)N[C@@H](C)C(=O)N[C@@H](CC(C)C)[C@@H](O)CC(=O)O)C(C)C)C(C)C (stereo partly drawn)	92	87	.	-61
CCOC(=O)c1cnc2c(ccc3ccccc32)c1Nc1ccccc1OCC	99	104	108	4
O=c1c(Oc2ccccc2F)coc2cc(O)ccc12	115	96	.	2
O=C1CC2CS(=O)(=O)CC2N1C1CCCCC1 (stereo not drawn)	81	100	98	-8
COc1ccccc1NC(=O)C1=C(C)Nc2ncnn2C1c1ccccc1C(=O)O (stereo not drawn)	89	86	105	-37
Cc1nnc(-c2ccccn2)[nH]c1=O	97	88	102	-28
CC(C)(C)c1ccc(C(O)=C(C#N)C#N)cc1	109	82	104	-5
CC1(C)C(=O)N(CC(=O)N2CCN(c3cccc(Cl)c3)CC2)c2ccccc21	.	.	98	-11
Cc1ccc(-c2nc3sc(CCNC(=O)c4ccc(C)c(C)c4)c(C)n3n2)cc1	139	85	94&105	.
Nc1ccc2c(c1)C(=O)N(CC1CCCO1)C2=O (stereo not drawn)	99	102	93	-68
CCCN(Cc1nnc(-c2ccco2)o1)C(=O)C1CCN(c2ncc(C(F)(F)F)cc2Cl)CC1	100	93	.	3
Cc1ccc(S(=O)(=O)c2nc(-c3cccs3)oc2SC(C)c2ccccc2)cc1 (stereo not drawn)	102	89	108	-4
CC1CCCCN1C(=O)c1cc2ccccc2cc1O (stereo not drawn)	106	99	107	3
CCCNC(=O)C1CCN(C(=O)N2CCOc3ccc(Cl)cc32)CC1	.	.	96	8
O=C(Nc1ccc(Br)cc1F)C1CCCN(c2nc3cccnc3s2)C1 (stereo not drawn)	.	.	105	-4
NC(=O)c1c(NC(=O)c2csnn2)sc2c1CCCC2	.	.	102	-19
COc1ccc(Nc2nnc(SCC#N)s2)cc1	70	96	.	-6
Cc1ccc(-n2c(/C=C/c3c(C)n(C)c4ccccc34)nc3ccccc3c2=O)cc1	103	84	88	-24
CC(C)n1cnc(S(=O)(=O)N2CCC(C(=O)N3CCN(c4ccccn4)CC3)CC2)c1	.	.	103	-14
CC(C)(C)NC(=O)[C@H]1CCC2C3CCC4NC(=O)C=C[C@]4(C)C3CC[C@@]21C (stereo partly drawn)	100	94	.	-46
CCN(CC)C(=S)SCc1nc(N)nc(Nc2ccccc2OC)n1	93	80	104	-33
O=S(=O)(/C=C/c1ccccc1)N1CCN(C(=S)NCC2CCCO2)CC1 (stereo not drawn)	89	97	.	-25
Cc1nn(-c2ccccc2)c2nc(N)c(C(N)=O)cc12	88	65	97	33
O=C(c1cc2nc(-c3ccco3)cc(C(F)(F)F)n2n1)N(Cc1ccccc1)Cc1ccccc1	104	112	.	-8
Cc1ccc(S(=O)(=O)C(CNS(=O)(=O)c2cc(F)ccc2F)c2cccs2)cc1 (stereo not drawn)	146	90	99	.
CCc1nn(CC(=O)NC(C)c2ccccc2)c(=O)c2cc3sccc3n12 (stereo not drawn)	104	96	102	6
COC(=O)c1ccccc1NC(=O)CSc1nc2sc3c(c2c(=O)[nH]1)CCCC3	105	84	102	-17
COc1cc(C=C2C(=O)NC(=S)NC2=O)cc(Cl)c1OCc1ccc(Cl)cc1	.	.	108	-14
Cc1noc(C)c1CSc1nc2sc(C)c(C)c2c(=O)n1C1CCCC1	99	93	.	-27
Cc1nnc(NCc2ccc(F)cc2)c2c1nnn2Cc1ccccc1Cl	101	85	105	-4
O=C(O)CSc1nnnn1C1CCCCC1	114	106	100	-8
COc1ccc(S(=O)(=O)NCCc2csc3nc(-c4ccccc4)nn23)cc1OC	92	82	98	.
CCOC(=O)c1cnn2c1nc(N1CC(C)CC(C)C1)c1ccccc12 (stereo not drawn)	121	91	105	-9
Cc1ccc2oc(-c3cccc(N)c3)nc2c1	83	74	104	-20
O=C(CC1CCN(C(=O)C2CCCCC2)CC1)N1CCCC1	.	.	99	-37
COc1ccc(NC(=O)c2cc3cc(OC)ccc3oc2=N)cc1	99	85	100	.
COc1cccc(NC(=S)N(Cc2ccccc2)Cc2ccc(C)o2)c1	79	78	101	.
FC(F)(F)c1cccc(-c2nc(-c3ccc(-c4ccon4)s3)no2)c1	102	60	101	3
CCCCOC(=O)Nc1nc2ccccc2s1	.	.	102	-25
O=C(CCn1ccc2cc(S(=O)(=O)N3CCCC3)ccc21)NCc1ccccc1Cl	90	86	98	.

Of the compounds above, these contain two or more sulfur atoms:
SMILES	Sa growth 42C	Sa growth 42C second temp	GIV Gai3 FP	HCMV NEC inh
Cc1ccc(S(=O)(=O)c2nc(-c3cccs3)oc2SC(C)c2ccccc2)cc1 (stereo not drawn)	102	89	108	-4
NC(=O)c1c(NC(=O)c2csnn2)sc2c1CCCC2	.	.	102	-19
COc1ccc(Nc2nnc(SCC#N)s2)cc1	70	96	.	-6
CCN(CC)C(=S)SCc1nc(N)nc(Nc2ccccc2OC)n1	93	80	104	-33
O=S(=O)(/C=C/c1ccccc1)N1CCN(C(=S)NCC2CCCO2)CC1 (stereo not drawn)	89	97	.	-25
Cc1ccc(S(=O)(=O)C(CNS(=O)(=O)c2cc(F)ccc2F)c2cccs2)cc1 (stereo not drawn)	146	90	99	.
COC(=O)c1ccccc1NC(=O)CSc1nc2sc3c(c2c(=O)[nH]1)CCCC3	105	84	102	-17
Cc1noc(C)c1CSc1nc2sc(C)c(C)c2c(=O)n1C1CCCC1	99	93	.	-27
COc1ccc(S(=O)(=O)NCCc2csc3nc(-c4ccccc4)nn23)cc1OC	92	82	98	.

Following part:
SMILES	Sa growth 42C	Sa growth 42C second temp	GIV Gai3 FP	HCMV NEC inh
CCOc1ccc(-c2nc(CSCC(=O)NC3CCCC3)c(C)o2)cc1	110	84	101	.
O=S1(=O)c2ccccc2NC(c2ccccc2Cl)N1Cc1ccc(Br)cc1 (stereo not drawn)	.	.	100	-14
COc1ccc(S(=O)(=O)N(CC(=O)NCCSCc2cccc(Cl)c2)c2ccc(C)cc2)cc1OC	.	.	98	-15
O=C1CN(C(=O)COC(=O)Cn2cnc3ccccc3c2=O)c2ccccc2N1	104	86	.	-10
Cc1oc2ccc(O)c(CN3CCCCC3)c2c1C(=O)Nc1cccc(C(F)(F)F)c1	110	72	98	-12
Cc1cc(NS(=O)(=O)c2ccc(NC(=S)NC(=O)c3ccccc3)cc2)no1	72	80	100	-46
CCOc1ccc(NC(=O)Cc2coc3ccc(C)cc23)cc1	106	94	102	13
COc1cc2ccccc2cc1C(=O)Nc1nc2c(s1)CCc1ccccc1-2	.	.	101	-9
O=C(Cn1c(=O)n(CCc2ccccc2)c(=O)c2c3c(sc21)CCCC3)Nc1ccc(F)c(F)c1	91	89	107	-2
CC(c1ccccc1)N1CC(O)=C(c2nc3ccccc3c(=O)[nH]2)C1=N (stereo not drawn)	.	.	107	10
Cc1nnsc1C(=O)N1CCN(c2ccccc2)CC1	.	.	103	11
O=C(/C=C\c1ccc2c(c1)OCO2)NC1CC(=O)N(c2ccc(F)cc2)C1 (stereo not drawn)	134	89	97	.
O=C(NCCC1=CCCCC1)c1ccc2c(c1)OCCO2	105	105	112	8
O=C(Cn1ncc2c1-c1ccccc1OC2)NCCCN1CCC(Cc2ccccc2)CC1	.	.	97	-37
COC(=O)c1ccc(Nc2nc(C)c3nc(C)n(-c4ccc(C(=O)OC)cc4)c3n2)cc1	.	.	103	-32
Cc1ccc(-n2nnnc2SCC(=O)NN2C(=O)NC3(CCCCC3)C2=O)cc1	87	96	.	11
O=C(CSc1nc2scc(-c3cccs3)c2c(=O)[nH]1)c1ccc[nH]1	90	89	.	-14
C=CCC(C)(NCCc1ccccc1)c1ccco1 (stereo not drawn)	106	82	105	-16
CSc1nc(Nc2cccc(C(F)(F)F)c2)cc(C(F)(F)F)c1C#N	105	88	98	-40
CCOC(=O)c1c(C)n(-c2ccccc2)c2ccc(OC(=O)c3ccc(Cl)cc3Cl)cc12	.	.	104	-11
O=C(COc1ccccc1)N1CCN(c2cc(=O)n3nc(-c4ccccc4)sc3n2)CC1	.	.	106	-34
CN1C(=O)c2ccccc2C(C(=O)Nc2ccccn2)C1c1c[nH]c2ccccc12 (stereo not drawn)	104	80	104	-1
CN1C(=O)N(Cc2ncc(-c3ccccc3)o2)C(=O)C1(C)C	136	92	.	-11
COc1ccc(-c2nn(CCCC(=O)NCCc3ccc(Cl)cc3)c(=O)c3noc(C)c23)cc1	.	.	98	-1
Cc1nnc2ccc(-c3ccc(NS(=O)(=O)c4ccc5c(c4)OCCO5)cc3)nn12	106	87	101	-33
CCOC(=O)N1CCN(C(=O)C2CCN(S(=O)(=O)N(CC)CC)CC2)CC1	105	87	96	.
CC(=O)N1CCN(C(=O)C2(NC(=O)Nc3ccc(C)cc3)CCCCC2)CC1	122	106	105	12
COc1ccc(C=C2C(=O)OC(C)(C(C)(C)C)OC2=O)cc1 (stereo not drawn)	95	93	94	.
COC(=O)c1ccccc1NC(=O)Cn1c(=O)c(CNc2ccccc2)cc2ccc(OC)cc21	.	.	107	-8
CC(C)N(Cc1ccccc1)C(=O)Cn1ncc2c([nH]c3ccccc32)c1=O	114	96	99	.
O=C(Nc1ccc(Br)cc1F)N1CCC(CN2CCc3ccccc3C2)CC1	123	91	105	.
Cc1cccc(CC(=O)n2nc(C)cc2C)c1	112	106	104	-27
Cc1ccccc1S(=O)(=O)Cc1ccc(C(=O)NCCN2CCCC2)o1	107	98	95	2
CC(C)c1cc(C(C)C)c(S(=O)(=O)N2CCN(CCO)CC2)c(C(C)C)c1	86	77	103	-31
CC/C(=N\NS(C)(=O)=O)c1ccccc1	98	109	103	10
CCc1cccc(NC(=O)C2CCCN(S(=O)(=O)c3cccs3)C2)c1 (stereo not drawn)	104	85	105	-7
Cc1cccc(CSc2ncnc3scc(-c4ccccc4)c23)c1	.	.	108	-22
Cc1nc2nc[nH]n2c(=O)c1NS(=O)(=O)c1ccc(N2CCCC2=O)cc1	.	.	100	12
CCCNC(=O)c1ccc2nc(N3CCCCC3)sc2c1	101	90	101	.
N=c1oc2ccccc2cc1-c1nnc2n1CCCCC2	107	85	.	-57
Cc1ccc(NC(=O)CN(C)Cn2nc(-c3ccco3)oc2=S)cc1	90	82	.	-6
CCS(=O)(=O)N1CC(=O)N(c2ccc(C)c(C)c2)C(C)(C(=O)NC2CCCCC2)C1 (stereo not drawn)	116	90	103	.
CCN1CCCC1CNCc1ccccc1 (stereo not drawn)	100	89	.	-1
COCCn1c(SCC(=O)c2ccc(CNC(C)=O)cc2)nc2ccccc21	77	72	.	-24
COc1cc(C2CC(=O)Nc3nc(N)[nH]c(=O)c32)ccc1OCc1ccccc1C (stereo not drawn)	.	.	96	-14
O=C(CCc1nc2ccccc2c(=O)[nH]1)Nc1nccs1	90	89	.	-27
Cc1cccc(C(=O)OCC(=O)N2CC(C)CC(C)C2)c1C (stereo not drawn)	100	102	.	8
CCc1ccc(-c2nc(CN3CCC(C(=O)NCc4ccco4)CC3)c(C)o2)cc1	127	95	97	-2
Cc1cccc(/C=C/c2onc(C)c2S(=O)(=O)N2CCC(C(=O)N3CCC(C)CC3)CC2)c1	119	103	114	.
N#CCC(=O)Nc1cccc2ccccc12	85	88	.	-32
CC1(C)CC2CC(C)(CN2C(=O)COC(=O)c2cncc(Br)c2)C1 (stereo not drawn)	102	95	.	-2
Cc1ccc2oc(-c3ccc(Cl)c(NC(=O)Cc4ccccc4)c3)nc2c1	96	94	106	11
Cc1cccc(CSc2nc(=O)c3c(n2C)NC(=O)CC3c2cc(F)cc(F)c2)c1 (stereo not drawn)	103	91	98	-16
O=C(O)C1C2C=CC(C2)C1C(=O)N1CC=C(c2ccccc2)CC1 (stereo not drawn)	96	82	93	-19
